Calb FLC – C. albicans growth modulation with fluconazole. C. albicans CaCi-2 (fluconazole-resistant clinical isolate) + fluconazole, Alamar Blue growth, 48 h. growth inhibition, % (test concentration not listed). hit rate 0.57% among 300,000. AID 1979;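 active means most replicates above 75%; inconclusive means exactly half above 75%; inactive means most below 75%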;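 further: all wells also contain fluconazole at 8 µg/ml as a sub-toxic cotreatment; 0% = median of DMSO wells and 100% = median of geldanamycin control wells; wells of about 8 µL received 7.5 nL stock; the first replicate is given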
ALR inh – human ALR oxidase inhibition via reduced H2O2; P55789; purified ALR, DTT oxidation, H2O2 HRP-luminol luminescence; inhibition, % (no concentration beside the values); hit rate 3.8% among 290,000;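 active means mean and each replicate at 75% or more; inconclusive means only one of the two met; inactive means neither met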;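 further: stock transfer was 7.5 nL into about 7.5 µL; 0% = neutral wells and 100% = wells with inactivated enzyme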
Target sequence (P55789 whole entry, looked up): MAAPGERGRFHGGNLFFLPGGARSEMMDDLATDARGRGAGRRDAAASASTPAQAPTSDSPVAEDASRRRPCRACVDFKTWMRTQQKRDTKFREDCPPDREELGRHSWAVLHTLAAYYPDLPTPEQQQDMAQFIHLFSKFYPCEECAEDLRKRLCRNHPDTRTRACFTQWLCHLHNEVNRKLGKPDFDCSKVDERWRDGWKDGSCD
LANA-H2A inh – blocks KSHV LANA binding to histone H2A/H2B. cell-free LANA-H2A/H2B peptide, fluorescence polarization. Q9QR71. AID 2629. hit rate 0.6% among 320,000. inhibition, % (no concentration beside the values); in the data active means inhibition mostly above about 10%, no sharp cut-off; inactive means mostly below about 6.7%;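 further: stock transfer was 7.5 nL into about 10 µL; 0% = median of vehicle wells and 100% = median of positive control wells; one replicate is shown; the record names a cut of 25% in any replicate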
Vif TR-FRET – inhibitors of Vif binding to APOBEC3G peptide, primary screen, biochemical, TR-FRET, GST-Vif 1-94, biotin-A3G peptide, dose response retest (AID 1117319); TR-FRET GST-Vif / biotin-A3G peptide binding; higher % means a stronger effect; test concentration not given here; strong numbers were not always called active; inhibition, %; hits with a dose series show IC50 in µM; hit rate 0.57% among 260,000;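 active means above the screen mean plus three standard deviations and confirmed in dose response; inconclusive means results disagree or hit not tested in dose response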;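 further: Vif residues 1-94 fused to GST binding biotinylated APOBEC3G peptide 110-148; 0% = full assay without inhibitor and 100% = GST in place of GST-Vif; retest series ran down from 100 µM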
RanGTP-Imp inh – inhibitors of RanGTP-importin-beta interaction, primary screen, biochemical, FRET, CFP-Ran, YFP-importin-beta, homogeneous. cell-free CFP-Ran/YFP-importin-beta FRET ratio. inhibition, % (no concentration beside the values). hit rate 1.1% among 300,000;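 active means most replicates above 15%; inconclusive means exactly half above 15%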;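 further: 0% = DMSO wells and 100% = Ran loaded with GDP instead of GTP; wells of about 40 µL received 100 nL stock; the first replicate is given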
Beta2AR agonist – activates human beta-2 adrenergic receptor causing internalization; P07550; Am2.2-beta2AR cells, FAP receptor internalization, flow cytometry; reference of the scale not given here; response, % (no concentration beside the values); hit rate 0.43% among 340,000; AID 504454;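 active means response above a set limit, near 3 SD of response in nonfluorescent compounds, cut at about 42% in these data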;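 further: stock transfer was 100 nL into about 11 µL; a reference agonist was the positive control; negative values mostly stem from fluorescent compounds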
Target sequence (P07550 whole entry, looked up): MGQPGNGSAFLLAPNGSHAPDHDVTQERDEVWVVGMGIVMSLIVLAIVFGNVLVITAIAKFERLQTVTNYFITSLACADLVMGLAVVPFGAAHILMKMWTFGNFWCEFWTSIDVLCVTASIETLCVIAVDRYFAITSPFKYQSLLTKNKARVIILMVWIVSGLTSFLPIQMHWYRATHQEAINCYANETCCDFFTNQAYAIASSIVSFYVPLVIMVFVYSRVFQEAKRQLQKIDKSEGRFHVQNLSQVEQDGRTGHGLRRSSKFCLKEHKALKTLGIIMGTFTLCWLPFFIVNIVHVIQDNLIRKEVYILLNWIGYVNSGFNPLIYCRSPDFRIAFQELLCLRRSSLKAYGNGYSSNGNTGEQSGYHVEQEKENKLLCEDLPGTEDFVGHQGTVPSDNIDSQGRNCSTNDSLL
HNF4A DNA FP – change in binding of human HNF4 alpha to DNA | activity change, % at 10 µM | AID 1224865 | hit rate 0.3% among 360,000 | HNF4a-FITC DNA binding, fluorescence polarization, 1 h; in the data active means activity change above about 30%, passing the limit was not always enough;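 further: controls were the assay level and a saturating level of protein; the project sought stronger binding though the title names inhibitors; some compounds called inactive have numbers as strong as hits; positive values seem to mean higher polarization but the record does not say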
Target sequence (P41235 whole entry, looked up): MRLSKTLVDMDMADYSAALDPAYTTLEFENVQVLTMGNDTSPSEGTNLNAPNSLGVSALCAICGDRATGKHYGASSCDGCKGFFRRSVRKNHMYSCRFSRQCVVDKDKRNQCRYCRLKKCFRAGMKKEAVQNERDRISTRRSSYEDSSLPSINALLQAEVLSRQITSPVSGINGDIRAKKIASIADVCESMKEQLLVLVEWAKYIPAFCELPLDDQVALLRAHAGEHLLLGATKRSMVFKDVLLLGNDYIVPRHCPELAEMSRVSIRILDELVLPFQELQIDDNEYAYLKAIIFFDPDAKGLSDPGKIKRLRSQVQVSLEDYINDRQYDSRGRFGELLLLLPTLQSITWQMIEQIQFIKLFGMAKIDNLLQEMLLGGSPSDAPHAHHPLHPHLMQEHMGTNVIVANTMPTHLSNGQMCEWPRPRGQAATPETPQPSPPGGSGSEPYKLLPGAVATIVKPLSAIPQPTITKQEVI
An asterisk follows results filed as active; ? = inconclusive; · = not tested or not shown.

| compound | Calb FLC | ALR inh | LANA-H2A inh | Vif TR-FRET | RanGTP-Imp inh | Beta2AR agonist | HNF4A DNA FP |
| --- | --- | --- | --- | --- | --- | --- | --- |
| Cc1ccc2c(c1)N(CC(=O)N1CCCC1)C(=O)C(C)O2 (centres undefined) | -2.4 | -7.1 | -0.2 | · | -1.7 | 1.1 | 1.8 |
| CCc1[nH]c(C)c(C(C)=O)c1C | -8.7 | -12.1 | 3.0 | 2.2% | -0.7 | -0.4 | 1.3 |
| CCc1cccc(Nc2c([N+](=O)[O-])cc(C(=O)N3CC(=O)Nc4ccccc43)cc2[N+](=O)[O-])c1 | -1.2 | -5.4 | 4.3 | · | 1.5 | 5.9 | -4.9 |
| COc1ccc(CN(C)C(=O)c2ccc(NS(=O)(=O)c3ccc(F)cc3)cc2)c(OC)c1 | 0.7 | -0.9 | -0.3 | · | 2.0 | 3.4 | 2.5 |
| COc1ccc(-n2c(-c3ccccc3)nc(=S)c3c2CCCC3)cc1 | 0.7 | -4.9 | 1.4 | -3.5% | -5.6 | 1.5 | 1.5 |
| O=C(c1cc2c(cc1Br)OCCCO2)N1CCCCC1 | -5.7 | -1.7 | 0.6 | 18.8% | 4.0 | -5.0 | 2.9 |
| CCOC(=O)c1cc(C)n(-n2cnnc2)c1C | 2.5 | -1.8 | 0.8 | -4.6% | 3.5 | -4.9 | 4.2 |
| CN(C(=O)N1CCN(S(=O)(=O)c2ccccc2)CC1)c1ccccc1 | -8.6 | -2.3 | 0.2 | · | 2.4 | 1.4 | 1.6 |
| COc1ccccc1N1CCN(S(=O)(=O)c2ccc3c(c2)CC(C)N3C(C)=O)CC1 (centres undefined) | 5.2 | 29.5 | 2.1 | 4.8% | -5.8 | 3.6 | -6.8 |
| CCCOc1ccc(C(=O)Nc2ccc(N3CCN(C(C)=O)CC3)cc2)cc1 | 3.6 | · | -0.9 | 21.1% | 5.0 | 4.8 | 1.4 |
| COc1cc([N+](=O)[O-])ccc1NC(=O)Cc1ccc(C)cc1 | -16.1 | -5.1 | 2.1 | -1.8% | -4.3 | -5.7 | -0.7 |
| CC(C)(C)n1ncc2c(=O)n(Cc3cccc(Cn4cnc5c(cnn5C(C)(C)C)c4=O)c3F)cnc21 | · | -1.1 | -0.7 | · | · | -10.0 | -0.4 |
| O=C(CN1C(=O)NC2(CCCCCCC2)C1=O)Nc1c(Cl)cccc1Cl | · | 15.6 | -0.4 | · | · | -1.2 | 0.1 |
| COc1ccccc1-c1oc2ccccc2c1C#CC1(O)CCCCC1 | · | -5.2 | -1.4 | · | · | -9.3 | 1.2 |
| Cc1nn(CC(=O)NCc2ccc(-n3cccn3)cc2)c(C)c1[N+](=O)[O-] | 9.2 | -16.1 | 0.8 | -6.6% | 1.6 | 3.9 | -1.1 |
| Cc1nc2ccccc2n1Cc1ccccc1Br | 21.9 | -13.0 | -2.8 | · | -8.7 | -14.1 | 2.9 |
| CCOC(=O)c1c(CC(C)C)csc1NC(=O)COC(=O)c1cc(OC)c(OC)cc1[N+](=O)[O-] | -15.1 | -18.9 | 7.9 | 11.0% | -1.6 | -4.6 | 2.1 |
| Cc1nn(C)c(C)c1CN(C)C(=O)C1(C)CC1(Br)Br (centres undefined) | -4.0 | -1.1 | 2.5 | 5.2% | -2.4 | 0.8 | -1.3 |
| COc1cc(OC)c(C2C3=C(CCCC3=O)Nc3nc4ccccc4n32)cc1OC (centres undefined) | -8.2 | -8.6 | 6.0 | -1.3% | -0.3 | -2.5 | 16.6 |
| CN(Cc1ccccc1)S(=O)(=O)c1ccc(OCC(=O)NCc2ccncc2)cc1 | 20.8 | · | 1.7 | · | 1.6 | 4.7 | -0.5 |
| CC(C)(c1ccccc1)c1ccc(OCCN2CCCC2)cc1 | -16.9 | 7.4 | -2.7 | · | 3.6 | 5.7 | 1.2 |
| CC1CCN(C(=O)CCc2nnc3ccc(NCCCN4CCCC4=O)nn23)CC1 | -4.2 | -8.4 | -0.9 | · | -3.2 | -10.7 | 1.9 |
| COc1ccc(NC(=O)C(=O)NCC2CCCN2S(=O)(=O)c2ccc(C)cc2)cc1 (centres undefined) | 10.7 | · | -3.7 | -6.7% | 3.9 | 15.4 | 0.6 |
| O=C(NCc1ccccc1)c1ccc(F)c(F)c1 | -8.2 | -4.8 | -2.8 | 9.8% | 5.4 | 2.9 | -6.0 |
| COCCn1c(SCC(=O)/C=C2\N(C)c3ccccc3C2(C)C)nnc1-c1ccncc1 | -1.7 | -5.2 | 3.4 | -1.2% | -1.1 | -24.5 | 1.3 |
| CCn1ccnc1CN(C)Cc1nc(-c2ccccc2)no1 | 3.8 | -2.0 | 2.2 | · | -0.7 | -1.9 | 3.8 |
| Cc1ccc(C)c(S(=O)(=O)ON2C(=O)c3ccccc3C2=O)c1 | · | -0.9 | -5.1 | · | · | -1.4 | 3.2 |
| Cc1csc2nc(O)c(C(=O)NCCCN3CCCC3=O)c(=O)n12 | -1.8 | -6.4 | 2.5 | -6.0% | 0.2 | 1.2 | -0.1 |
| C#CCOCCOCCOCCNc1nc(N2CCN(C(=O)[C@H]([C@@H](C)CC)n3cc([C@@H](N)CO)nn3)CC2)nc(N2CCN(C(=O)[C@H](CCCCN)n3cc([C@@H](N)CO)nn3)CC2)n1 | · | -5.0 | -2.8 | · | · | 9.9 | -7.1 |
| Cn1c(SCC(=O)NNC(=O)Cc2ccccc2)nnc1-c1ccc(Cl)cc1 | 0.0 | -5.2 | 1.3 | 5.0% | -2.8 | 1.2 | -5.9 |

By substructure: those above containing an aryl thioether with sulfur outside any ring
| compound | Calb FLC | ALR inh | LANA-H2A inh | Vif TR-FRET | RanGTP-Imp inh | Beta2AR agonist | HNF4A DNA FP |
| --- | --- | --- | --- | --- | --- | --- | --- |
| COCCn1c(SCC(=O)/C=C2\N(C)c3ccccc3C2(C)C)nnc1-c1ccncc1 | -1.7 | -5.2 | 3.4 | -1.2% | -1.1 | -24.5 | 1.3 |
| Cn1c(SCC(=O)NNC(=O)Cc2ccccc2)nnc1-c1ccc(Cl)cc1 | 0.0 | -5.2 | 1.3 | 5.0% | -2.8 | 1.2 | -5.9 |

(cont.)
| compound | Calb FLC | ALR inh | LANA-H2A inh | Vif TR-FRET | RanGTP-Imp inh | Beta2AR agonist | HNF4A DNA FP |
| --- | --- | --- | --- | --- | --- | --- | --- |
| Cc1c(C(=O)NC2CCCc3ccccc32)oc2ccc(S(=O)(=O)N3CCOCC3)cc12 (centres undefined) | -6.4 | -5.8 | -5.8 | 2.0% | 5.5 | 7.8 | 1.0 |
| CC(=O)Nc1ccc(Nc2nc(-c3ccccc3)nc3ccccc23)cc1 | 18.9 | 98.9* | -5.7 | · | 0.9 | 21.5 | 4.4 |
| COc1ccc(C)cc1NC(=O)Nc1ccc(C(=O)N2CCCC2)cc1 | -9.9 | -4.6 | 3.7 | · | -2.0 | 2.8 | -3.2 |
| Cc1ccc(Nc2nc(N)nc(CSc3nc(C)cc(C)n3)n2)cc1 | -2.6 | -8.7 | 1.1 | 0.5% | -0.8 | 0.7 | -2.5 |
| Cn1cc(CCCC(=O)NCc2ccccc2)c2ccccc21 | 5.5 | 7.0 | 1.3 | -0.8% | -4.3 | 19.2 | 5.3 |
| O=S(=O)(c1ccc(Cl)c(NC(=S)Nc2cccc(O)c2)c1)N1CCOCC1 | 3.4 | 45.7 | 1.1 | 8.8% | -1.2 | 2.1 | -2.4 |
| CC(=O)N(C1=C(Cl)C(=O)c2ccccc2C1=O)C1CCCCC1 | 31.2 | 22.1 | -1.4 | ? | 4.0 | 63.8* | 1.9 |
| O=C1c2ccccc2C(=O)N1CCCCN(C(=O)c1ccc(Cl)s1)c1ccc(Cl)cc1 | 12.5 | -4.7 | 6.6 | 17.8% | 2.6 | 0.2 | 1.7 |
| Cc1cc(N=Cc2c(O)ccc3cc(Br)ccc23)no1 | -6.9 | -97.4 | 1.7 | 5.9% | 11.0 | 7.2 | -7.8 |
| CCCCNC(=O)Cn1cnc2c(cnn2-c2ccc(C)c(C)c2)c1=O | 16.4 | -5.5 | -1.8 | 9.2% | 2.1 | -1.9 | -4.5 |
| O=C1CC(NCc2ccco2)C(=O)N1CCc1ccccc1 (centres undefined) | -7.2 | -15.1 | -0.6 | 81.9% | 0.0 | 1.1 | 4.7 |
| CC(C)(C)OC(=O)C[C@@H]1C/C=C\C[C@H](CC(=O)NCCO)C(=O)N[C@H](Cc2ccccc2)COC1=O | · | 0.8 | -0.4 | · | · | -2.4 | -4.5 |
| Cn1nc([N+](=O)[O-])nc1Sc1nnnn1-c1cccc(C(=O)O)c1 | 4.8 | -40.2 | 4.1 | -4.6% | 0.6 | -6.9 | 1.9 |
| C=CCn1c(OCc2ccccc2)n[nH]c1=S | 0.5 | 96.0* | -5.3 | 3.3% | 3.7 | 3.4 | -1.7 |
| O=C(COC(=O)c1cc[n+]([O-])cc1)NCc1ccccc1Cl | 4.6 | · | -4.3 | 0.9% | 0.5 | 5.2 | 3.0 |
| Cc1cc(S(N)(=O)=O)c(N)c(S(N)(=O)=O)c1 | 8.2 | 2.0 | -3.3 | -4.1% | 1.4 | 3.8 | -0.1 |
| Cc1ccc(N(CC(=O)NCc2ccco2)C(=O)CCC(=O)Nc2ccccn2)c(C)c1 | 2.5 | 3.8 | -0.1 | · | -0.1 | -1.3 | 0.4 |
| CC1(C)CC(=NOC(=O)c2ccccc2)CC(C)(C)N1 | -14.6 | -1.6 | 2.8 | -0.9% | 0.4 | 9.7 | -3.9 |
| C/C=C(/C)C(=O)Nc1cccc(C2=NOC3(C2)C[C@@H](C(N)=O)N(C(=O)CCCCC)C3)c1 (some centres undefined) | 4.0 | -21.4 | -5.6 | 4.4% | -2.5 | -10.0 | -1.2 |
| NC(=O)C1CCN(CC(O)CSc2ccccc2)CC1 (centres undefined) | -5.0 | · | 2.1 | 12.7% | -1.6 | -4.0 | -1.7 |
| CCCCNS(=O)(=O)c1ccc(NS(=O)(=O)c2c(C)cc(C)cc2C)cc1 | -2.2 | -0.7 | 1.4 | 0.2% | ? | 5.1 | -1.2 |
| CC1=Nc2nc(N3CCCCCC3)c(C#N)c3c4c(nc(c23)N1)N(c1ccc2ccccc2c1)C(=O)C4 | -1.1 | -3.3 | 12.5 | · | -6.0 | 5.3 | -0.1 |
| NS(=O)(=O)c1ccc(Nc2nc(-c3ccc(F)cc3)cs2)cc1 | 2.1 | 46.2 | -3.0 | 11.3% | -3.5 | 10.4 | -3.2 |
| Cc1ccnc(SCC(=O)NC2CC2)n1 | 5.3 | -0.7 | -4.4 | · | -2.0 | 2.6 | 1.5 |
| Cc1cccc(NC(=O)CCNS(=O)(=O)c2cccc3nsnc23)c1C | 3.6 | · | -1.5 | -6.2% | -1.4 | -3.7 | 1.4 |
| Cn1nc(Cc2n[nH]c(=S)n2C)c2ccccc2c1=O | -11.9 | · | 7.8 | -11.9% | -1.6 | 3.0 | -3.6 |
| C=CCC(NCCCO)c1cccc(OC)c1OC (centres undefined) | 2.4 | 99.7* | 8.1 | 19.3% | -1.2 | -2.7 | -3.9 |
| COc1ccc(NS(=O)(=O)c2cccc(C(=O)NC3CCN(Cc4ccccc4)CC3)c2)cc1 | -7.1 | -0.5 | -3.2 | · | 2.3 | 10.8 | -5.4 |
| Cc1ccc(C(=O)COC(=O)c2cc(=O)[nH]c3ccccc23)cc1 | 1.4 | 3.3 | -1.2 | · | ? | 1.4 | 2.9 |
| COc1cc(/C=N/NC(=O)c2ccoc2C)cc(OC)c1OC | -2.1 | -7.0 | -3.0 | 1.6% | -3.4 | 1.6 | 9.1 |
| COc1ccc(CCNC(=O)c2ccc3nc(N4CCCCC4)sc3c2)cc1OC | 18.7 | 0.7 | -3.6 | · | 3.8 | -1.4 | 2.1 |
| COCCNC(=O)C(c1ccc(OC)cc1)N(CCOC)C(=O)CCC(=O)Nc1nccs1 (centres undefined) | -0.6 | -0.9 | 0.4 | · | 4.9 | 0.1 | -4.4 |
